# Assay outcomes (PubChem)
# Rango complex inh: prevents formation of the Rango-importin beta complex | Rango CFP/YFP FRET sensor + importin beta, 45 min | Potency, µM (top dose mostly 92.2 µM), inactives show top-dose inhibition of complex formation | Q14974 | 340,000 tested, 0.031% active; active = rising FRET ratio curve, often small or poorly fitted; inconclusive = mostly compound fluorescence or quenching in the first reads; inactive = flat curves in all reads;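 also: potency is read from the fitted curve at half-maximal effect; 0% = DMSO wells and 100% = buffer wells lacking importin beta; nearly all actives have a fitted effect of over 15% in size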
#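 Inhibition scored from the CFP 486 nm/YFP 530 nm FRET ratio 45 min after adding 0.125 microM importin beta to 50 nM Rango biosensor preincubated 5 min with compound (room temperature, PBS with DTT, Tween-20, BSA). No-importin wells as positive control.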
# Rango dissoc inh: prevents RanGTP from dissociating the Rango-importin beta complex | Potency, µM (doses to about 46.1 µM), for inactives: top-dose activity change, negative = inhibition | 340,000 tested, 0.071% active | AID 540253 | Biochemical FRET Rango-importin beta, RanGTP-induced dissociation | O95149+P62826; active means falling FRET ratio curve, often poorly fitted, with flat reads before Ran was added; inconclusive means other falling curves, or compound fluorescence or quenching; inactive means flat or rising ratio curve;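 also: potency is read from the fitted curve at half-maximal effect; % of control where 0% means no effect; nearly all actives have a fitted effect of over 45% in size; -100% = wells without RanGTP and RCC1; the record marks most hits as doubtful in a second field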
#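 Rango FRET biosensor (snurportin-1 IBB flanked by N-terminal EYFP and C-terminal CFP10) at 0.1 uM, with 0.25 uM importin beta in PBS, 1mM DTT, 0.02% Tween-20, 0.1% BSA. 0.6 uM Ran, 2mM GTP and 0.2 uM RCC1 were then added for 45 min at room temperature. Inhibition read as loss of FRET rise.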
# miR-21 reporter: miR-21 reporter, rising signal; HeLa miR-21 FLuc reporter, luciferase, 48 h; Potency, µM (series often up to 38.3 µM), for inactives: at the highest dose reporter change, positive = more light; 340,000 tested, under 10 active; active = well fitted rising curve with a large enough effect; inconclusive = small, poorly fitted or top-dose-only effect; inactive = no such curve, though single readings can be large or run the other way;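 also: % of control where 0% means no effect; miR-21 action dims this reporter so a rising signal means less miR-21 action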
#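 HeLa cells stably expressing CMV-driven firefly luciferase with a downstream miR-21 binding sequence, endogenously expressing miR-21, were treated with titrations (up to about 40uM final) for 48 hours at 37 degree Celsius. Luciferase luminescence was read after lysis.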
# GLA inh pH 4.5: inhibitors of human alpha-galactosidase A at pH 4.5 | P06280 | purified enzyme, 4-MU-alpha-Gal fluorescence, pH 4.5 | activity change, negative = inhibition, % at 105 µM | 230,000 tested, under 10 active | AID 1467; inconclusive = small, poorly fitted or top-dose-only inhibition, or a rising curve; inactive = flat fitted curve, though single readings scatter; no compound was filed as active;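 also: 0% = full activity with enzyme and -100% = basal without enzyme; dose as in the result columns while the protocol names 77 µM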
# Target sequence (P06280 whole entry, looked up): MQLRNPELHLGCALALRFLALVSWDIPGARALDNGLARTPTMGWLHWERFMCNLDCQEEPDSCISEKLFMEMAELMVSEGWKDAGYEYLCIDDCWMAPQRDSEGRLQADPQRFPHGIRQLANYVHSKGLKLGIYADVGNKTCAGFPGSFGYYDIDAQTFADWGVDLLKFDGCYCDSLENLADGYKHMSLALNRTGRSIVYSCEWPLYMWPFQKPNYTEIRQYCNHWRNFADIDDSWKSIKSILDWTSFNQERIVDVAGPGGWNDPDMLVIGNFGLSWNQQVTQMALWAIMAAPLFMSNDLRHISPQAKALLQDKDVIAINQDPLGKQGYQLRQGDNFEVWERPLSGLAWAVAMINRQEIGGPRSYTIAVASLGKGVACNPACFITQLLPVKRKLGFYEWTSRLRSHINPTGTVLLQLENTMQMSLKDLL
# Numbers without * were called inactive; ? = inconclusive; . = no result given; & = joins results of further samples. An excerpt; the hit share may differ from the screen's.
SMILES,Rango complex inh,Rango dissoc inh,miR-21 reporter,GLA inh pH 4.5
COc1cccc2[nH]c(C(=O)NCCc3ccccc3)cc12,-3.4%,-10%,-51%,.
CCOCc1c(C(=O)N2CCN(CC(=O)Nc3ccc(F)cc3)CC2)oc2ccccc12,1.9%,-5%,.,.
O=S(=O)(c1cccc(-c2nnc(-c3cccnc3)o2)c1)N1CCCCC1,-5.6%,0%,-4%,-6
COc1ccc(CNC(=O)COC(=O)CN2C(=O)C3CC=CCC3C2=O)cc1 (stereo not drawn),0.9%,8%,.,.
O=S(=O)(c1ccc(Cl)s1)N1CCN(C/C=C/c2ccccc2)CC1,0.0%,7%,-8%,-16
COc1cccc(CN2CCNC(=O)C2CC(=O)N(C)C2CCOCC2)c1 (stereo not drawn),-2.5%,12%,1%,.
COC(=O)C1CCN(c2cc(Cl)nc(N)n2)CC1,-2.0%,12%,5%,-9
CCCCn1c(N)c(N(CCC(C)C)C(=O)CC2CCCCC2)c(=O)[nH]c1=O,0.3%,-23%,.,.
CCCC(=O)C1=C(O)C(C(=O)OC)C(C)(C)CC1=NCCc1ccc(OC)c(OC)c1 (stereo not drawn),-0.6%,-14%,-3%,-9
CCOc1ccccc1NC(=O)c1ccc(S(=O)(=O)N2CCOCC2)cc1,-0.9%,-11%,-4%,5
O=Cc1c[nH]c2ccc(S(=O)(=O)N3CCOCC3)cc12,13%,35%,-10%,-1
O=C(O)COc1ccc(/C=N/NC(=O)C2CCCN2S(=O)(=O)c2ccc(Cl)cc2)cc1 (stereo not drawn),0.1%,2%,-4%,1
COc1ccc(C=O)cc1COc1ccccc1F,0.6%,-9%,-3%,2
COC1CCCCC1NS(=O)(=O)c1ccc(Cl)cc1 (stereo not drawn),-1.9%,26%,-10%,0
CCc1ccc(N2CC(C(=O)N3CCN(c4ccccn4)CC3)CC2=O)cc1 (stereo not drawn),-0.6%,-1%,.,.
COc1ccc(NC(=O)CN(C)C(=O)c2cc3c(s2)CCC(C)C3)cc1 (stereo not drawn),-2.4%,0%,-18%,.
O=C(c1ccc(C23CC4CC(CC(C4)C2)C3)o1)N1CCOCC1,0.1%,-4%,-40%,-2
CS(=O)(=O)N(CC(=O)N1CCN(c2cccc(Cl)c2)CC1)c1ccccc1,0.9%,0%,-4%,?
CC(NC(=O)COC(=O)c1cc(Cl)nc(Cl)c1)c1ccccc1 (stereo not drawn),-5.5%,-6%,5%,3
COc1ccc([C@H]2[C@@H]3C=CCC[C@@]3(C)C(=O)N2Cc2ccccc2)cc1Cl,-3.5%,-8%,12%,-6
Cc1cc(C)cc(N(C(=O)Cc2cccs2)C(C(=O)NC2CCCC2)c2ccc(C)o2)c1 (stereo not drawn),0.1%,2%,-4%,6
CCOc1ccc(CNCc2cccnc2)cc1,-3.6%,1%,-10%,4
Cc1ccc(C(=O)NCCc2nnc3ccc(SCC(=O)NCc4ccc(F)cc4)nn23)cc1,7.1%,-13%,-5%,.
CCc1ccccc1NC(=O)CN(C)C(=O)CN1C(=O)NC2(CCCCCC2)C1=O,1.6%,-15%,0%,3
CCC(=O)N1CCN(c2ccc(Cl)cc2NC(=O)Cc2ccc(Cl)cc2)CC1,0.0%,1%,26%,-12

# Quoted at random: 3 compounds from above, in no set order.
SMILES,Rango complex inh,Rango dissoc inh,miR-21 reporter,GLA inh pH 4.5
CCOCc1c(C(=O)N2CCN(CC(=O)Nc3ccc(F)cc3)CC2)oc2ccccc12,1.9%,-5%,.,.
CCCC(=O)C1=C(O)C(C(=O)OC)C(C)(C)CC1=NCCc1ccc(OC)c(OC)c1 (stereo not drawn),-0.6%,-14%,-3%,-9
CCC(=O)N1CCN(c2ccc(Cl)cc2NC(=O)Cc2ccc(Cl)cc2)CC1,0.0%,1%,26%,-12

# Next section.
SMILES,Rango complex inh,Rango dissoc inh,miR-21 reporter,GLA inh pH 4.5
CCOC(=O)Cc1csc(SCC(=O)Nc2cccc(Cl)c2)n1,-8.9%,4%,4%,0
CCN(CC)C(=O)CSc1nnc(-c2c[nH]c3ccccc23)o1,3.5%,4%,-59%,.
Cc1ccc(-c2ccc(C(=O)O)c(C)n2)cc1,0.2%,?,-7%,-1
Cn1nnnc1SCCNC(=O)C1CCC(=O)N(Cc2ccc(Cl)cc2)C1 (stereo not drawn),3.2%,15%,0%,.
COc1cccc(OCCCN2CCCCCC2)c1,-1.8%,6%,-8%,-6
COc1ccc2c(c1)cc1c(=O)n(CC(=O)NCCCN3CCOCC3)nc(C)n12,0.3%,0%,-2%,.
CCCn1nnc(NC(=O)COc2cc(C)ccc2C(C)C)n1,4.5%,8%,-1%,5
O=C(NC1=NCCS1)c1ccccc1F,-2.5%,0%,.,.
COc1ccc(N(CC(=O)NCc2ccc(Cl)cc2)S(=O)(=O)c2ccccc2[N+](=O)[O-])c(OC)c1,1.7%,14%,10%,-4
Cn1c2ccccc2c(=O)c2ccc(NCCc3cccs3)cc21,?,?,.,.
CCOC(=O)C1=C(N)Oc2c(oc(CO)cc2=O)C1c1ccc(F)c(F)c1 (stereo not drawn),-3.5%,-16%,1%,.
CC(Sc1nc2ccccc2n1C)C(=O)NC(c1ccccc1)c1ccccc1 (stereo not drawn),-1.2%,1%,-2%,-15
CCc1cc2c(SCC(=O)Nc3ncc(Cl)c(C)c3Cl)ncnc2s1,?,-17%,-5%,1
CN(Cc1nc(-c2ccc(Cl)cc2)no1)C(=O)CCN1C(=O)[C@H]2CC=CC[C@H]2C1=O,7.0%,0%,-1%,.
CC(C)(C)OC(=O)N1CSC[C@H]1C(=O)NC[C@H](CC(=O)O)c1ccc(Cl)cc1,-1.0%,16%,2%,.
CCOC(=O)C1=C(COC(=O)CSc2ccc(C)cc2)NC(=O)NC1C (stereo not drawn),5.7%,20%,.,.
Cc1ccc(N2CC(C(=O)NCc3n[nH]c(=O)c4ccccc34)CC2=O)cc1C (stereo not drawn),-0.3%,2%,.,.
O=c1[nH]c(=O)n(C2OC(CO)C(O)C2O)cc1N1CCOCC1 (stereo not drawn),3.1%,5%,.,.
CN(C)S(=O)(=O)c1cccc(NC(=O)c2cc([N+](=O)[O-])ccc2N2CCCCC2)c1,-4.7%,-2%,.,.
Cc1ccc(CSc2nc3c(c(=O)[nH]c(=O)n3C)n2CCC(C)C)cc1,1.1%,0%,-18%,-4
S=c1[nH]nc(Cc2cccs2)n1-c1ccccc1,-5.6%,37%,-4%,5
CC(C)CC1NC(=O)N(CC(=O)NC2CCCc3ccccc32)C1=O (stereo not drawn),-3.8%,-18%,-1%,1
COc1ccc(-c2cncnc2-c2ccc(OC)cc2O)cc1,0.7%,1%,20%,.
Cc1ccccc1C(=O)NCC(=O)OC(C)C(=O)NC(C)CCc1ccccc1 (stereo not drawn),-0.8%,-1%,.,.
COc1ccccc1N1CCN(C(=O)CNC(=O)c2ccc(Cl)cc2Cl)CC1,?,-24%,5%,.

# Next part.
SMILES,Rango complex inh,Rango dissoc inh,miR-21 reporter,GLA inh pH 4.5
CCN(CC)S(=O)(=O)c1ccc(N(C)Cc2cccc(OC)c2OC)nc1,-3.3%,35%,18%,-3
COc1cccc(CN(C)CCCn2ccc(NC(=O)OCc3ccccc3)nc2=O)c1,0.3%,1%,.,.
CCCCN(C(=O)c1ccc2c(c1)OCO2)c1c(N)n(CCCC)c(=O)[nH]c1=O,1.2%,-6%,.,.
Cc1c(CCOC(=O)CC23CC4CC(CC(C4)C2)C3)sc[n+]1Cc1ccccc1,-4.4%,10%,21%,5
CCN(C(=O)COC(=O)c1c(C)nsc1NC)c1ccccc1,5.7%,-1%,.,.
CCC(=O)N1CCN(c2ccc(NC(=O)COc3ccc(C)cc3C)cc2)CC1,-4.4%,-3%,15%,.
O=C(COC(=O)c1c2c(nc3ccccc13)/C(=C/c1cccc([N+](=O)[O-])c1)CCC2)NC1CCS(=O)(=O)C1 (stereo not drawn),1.2%,-14%,16%,-3
O=C(c1ccccn1)N(Cc1ccco1)C1(C(=O)NC2CCCC2)CCCCC1,0.2%,-11%,2%,1
CCc1cc2c(=O)c(-c3nc4ccccc4n3C)coc2c(CN2CCCCC2)c1O,-0.1%,6%,-1%,.
COc1ccc(-n2nc3c(c2NC(=O)c2c(F)cccc2Cl)CS(=O)C3)cc1 (stereo not drawn),-2.9%,-12%,1%,-11
NC(=O)c1ccc(-n2c(CCC(=O)O)ccc2-c2cccs2)cc1,-5.7%,-16%,-33%,-5
Cc1ccc(Cl)c(OCC(O)CN(CCO)CCO)c1 (stereo not drawn),2.6%,8%,-3%,-11
Cc1cccc(OCCNc2nc3c(c(=O)n(C)c(=O)n3C)n2C)c1,0.5%,2%,-1%,-14
CCOC(=O)c1sc(Nc2ccc(Br)cc2)nc1C,5.4%,-30%,-48%,0
Nc1cc(=O)[nH]c(SCC(=O)Nc2ccc(Oc3ccccc3)cc2)n1,-1.6%,6%,-9%,.
CCCCC1C2=C(CCCC2=O)OC2=C1C(=O)CCC2,-4.3%,?,-4%,-3
COC(=O)CCC(=O)NNC(=O)c1ccc(Cl)cc1Cl,-1.2%,5%,-5%,-6
Cc1ccc2nc3c(cc(C(=O)NCc4ccccc4)c(=N)n3CCCn3ccnc3)c(=O)n2c1,?,?,.,.
Cc1ccnc(NC(=O)c2cc(S(=O)(=O)NCc3ccccc3)ccc2C)c1,0.5%,-4%,.,.
Cc1ccc(CS(=O)Cc2ccc(C(=O)N3CCOCC3)o2)cc1 (stereo not drawn),0.3%,17%,-5%,.
CCN(c1ccccc1)S(=O)(=O)c1cc(C(=O)OC2CCOC2=O)ccc1C (stereo not drawn),0.5%,-7%,.,.
O=C(Nc1ccc2oc(=O)c(C(=O)O)cc2c1)Oc1ccccc1,5.9%,-26%,.,.
Cc1cc(C)n(-c2nc3c(c(=O)n(C)c(=O)n3C)n2CCO)n1,-1.0%,18%,-1%,9
CCOC(=O)CNC(=O)c1cn(CC(C)C)c(=O)c2cc(OC)c(OC)cc12,-4.0%,2%,-2%,-5
COc1cc(C(=O)N2CCN(c3ccccc3OC)CC2)c([N+](=O)[O-])cc1OC,3.5%,-10%,10%,-11

# (listing goes on)
SMILES,Rango complex inh,Rango dissoc inh,miR-21 reporter,GLA inh pH 4.5
c1cncc(-c2nc3ccccc3o2)c1,1.1%,3%,-18%,2
Cc1ccc(CNC(=O)c2cc(=O)c3cc(C)ccc3o2)cc1,6.8%,12%,0%&0%,.
COc1ccc(C(=O)CCc2ccccc2)cc1,-1.2%,0%,-55%,.
CSc1ncccc1C(=O)OCC(=O)Nc1ccc2c(c1)CCC2,-1.2%,-3%,.,.
N#Cc1c(N)nc(SCC(=O)C23CC4CC(CC(C4)C2)C3)c(C#N)c1-c1ccc(Cl)cc1,-2.5%,5%,0%,10
COc1ccc(-n2c(CN3CCN(c4ccccn4)CC3)nc3ccc([N+](=O)[O-])cc3c2=O)c(OC)c1,1.0%,-7%,-7%,-8
c1ccc2c(c1)c1c3n2CCNC3CCC1 (stereo not drawn),0.8%,-5%,-11%,9
C(=N\c1nccs1)/c1cccnc1,-1.0%,7%,-3%,7
COc1ccc(C2CC(=O)C(C=NCCO)=C(O)C2)cc1OC (stereo not drawn),-0.1%,-4%,-9%,0
COc1cccc(CCC(=O)N2CCC(n3nccc3NC(=O)C3CCOC3)CC2)c1 (stereo not drawn),1.3%,-14%,-6%,.
NS(=O)(=O)c1cccc(NC(=O)CSc2nc3ccccc3c(=O)n2CC2CCCO2)c1 (stereo not drawn),-2.2%,9%,.,.
Cc1cc(F)ccc1S(=O)(=O)Nc1ccc(O)c(Sc2ncn[nH]2)c1,-1.9%,0%,-1%,.
COc1ccc(NC(=S)N2CCN(c3ncccn3)CC2)cc1,0.9%,7%,-8%,-14
O=C(COC(=O)c1ccc[n+]([O-])c1)Nc1ccc(Cl)cc1[N+](=O)[O-],-2.8%,0%,.,.
N#CCC(=O)Nc1ccc(C(=O)Nc2cccnc2)cc1,8.8%,-12%,-3%,0

# Quoted from the listing.
# Rango complex inh with `O=C(COC(=O)c1ccc[n+]([O-])c1)Nc1ccc(Cl)cc1[N+](=O)[O-]` : -2.8%
# Rango dissoc inh with `CSc1ncccc1C(=O)OCC(=O)Nc1ccc2c(c1)CCC2` : -3%
